SNCA viab count – GF-AFC viability counterscreen for inhibitors of alpha-synuclein gene (SNCA) expression | HEK-293-SNCA-luc viability, GF-AFC fluorescence, 24 h | Potency, µM (top dose mostly 57.1 µM), inactives show at the highest dose activity change, negative = cytotoxicity, actives largely listed as cytotoxic | AID 1671193, 2021 | 0.12% of 150,000 active;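 further: 0% = DMSO-treated cells and -100% = medium-only wells without cells; nearly all actives have a fitted effect of over 30% in size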
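Cytotoxicity counterscreen: after 24 h compound treatment of genome-edited SNCA-luciferase HEK-293 cells, live-cell protease substrate GF-AFC read by fluorescence after 30 min; activity scaled between DMSO (0%) and medium-only (-100%), curves Hill-fitted.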
NIH3T3 tox – Cytotoxic Profiling in NIH 3T3 Cell Line of Diverse Libraries Using Quantitative High-Throughput Screening; Potency, µM (titrated, usually from 96.7 µM), for the others: at the top dose activity change, negative = cytotoxicity, most hits filed as inhibitors; NIH 3T3 viability, CellTiter-Glo ATP luminescence, 48-72 h; 4.3% of 94,000 active; further: nearly all actives have a fitted effect of over 55% in size
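Mouse fibroblast NIH 3T3 cells, 400 per well, received compound via pintool and were incubated for 48 or 72 hr prior to CellTiter-Glo ATP luminescence measurement.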
HEK cytotox – Cytotoxic Profiling in HEK 293 Cell Line of Diverse Libraries Using Quantitative High-Throughput Screening | HEK 293 viability, ATP luminescence (CellTiter-Glo), 48-72 h | Potency, µM (titrated, usually from 115 µM), without a hit: at the highest dose activity change, negative = cytotoxicity, hits mostly inhibitors | 6.6% of 94,000 active; further: nearly all actives have a fitted effect of over 60% in size
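ATP-coupled CellTiter-Glo luminescence served as viability read-out, recorded 10 min after reagent addition at room temperature. HEK 293 cells, 250 cells/well, had been incubated with pintool-transferred compound for 48 or 72 hr at 37 degree Celsius.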
FLuc inh – Firefly luciferase inhibition profiling of diverse chemical library using quantitative high-throughput screening; purified P. pyralis luciferase, luminescence, biochemical; Potency, µM (doses to about 115 µM), for the others: top-dose activity change, negative = inhibition, most hits filed as inhibitors; 2.5% of 76,000 active; further: nearly all actives have a fitted effect of over 65% in size
Target sequence (P08659 whole entry, looked up): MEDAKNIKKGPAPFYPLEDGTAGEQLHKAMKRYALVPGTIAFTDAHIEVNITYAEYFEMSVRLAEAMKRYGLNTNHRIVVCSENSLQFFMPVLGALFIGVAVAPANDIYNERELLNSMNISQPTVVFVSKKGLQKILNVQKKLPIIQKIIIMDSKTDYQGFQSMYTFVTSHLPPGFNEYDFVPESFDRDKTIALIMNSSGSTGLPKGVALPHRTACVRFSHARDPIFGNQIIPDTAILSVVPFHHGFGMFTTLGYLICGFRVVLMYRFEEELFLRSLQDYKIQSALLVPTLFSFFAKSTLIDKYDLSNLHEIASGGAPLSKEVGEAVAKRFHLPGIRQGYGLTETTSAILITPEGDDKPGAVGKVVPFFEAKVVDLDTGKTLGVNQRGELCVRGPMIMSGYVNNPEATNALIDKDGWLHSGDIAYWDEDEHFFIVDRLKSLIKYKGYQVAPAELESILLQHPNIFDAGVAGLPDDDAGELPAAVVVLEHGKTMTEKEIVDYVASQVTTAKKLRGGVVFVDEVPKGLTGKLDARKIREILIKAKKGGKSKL
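Cell-free enzyme assay, 10nM P. pyralis luciferase, luciferin and ATP each at 10uM. Inhibition profiled over a 6-point titration, read as luminescence.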
SNCA expr inh – Primary qHTS assay for inhibitors of alpha-synuclein gene (SNCA) expression; AID 1671194, 2021; 0.17% of 140,000 active; Potency, µM (top dose mostly 57.2 µM), inactives show at the highest dose activity change, negative = inhibition, usual class: inhibitors; HEK-293 SNCA-luciferase knock-in, luminescence, 24 h;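 further: plate controls were DMSO cells for no effect and cell-free wells for full effect; nearly all actives have a fitted effect of over 45% in size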
* hit, by the source's call; [ ] = remark or other dose. The call rests on the fitted dose curve; in most records, active means well fitted curve in the direction sought with a large enough effect; inconclusive means small, poorly fitted or top-dose-only effect, or another doubt; inactive means no such curve, though single readings can be large; an effect the other way counts as inactive or inconclusive. Unless noted, on the % scale 0 is the no-effect control and ±100 the full control effect; potency means the concentration at half of the fitted maximal effect.

`Cc1nn(C)c(C)c1CCN(C)C(=O)CCC1CCN(C(=O)c2ccccc2F)CC1` gave SNCA viab count -12%, NIH3T3 tox -12%, HEK cytotox 1%, FLuc inh 3% and SNCA expr inh -15%.
For C#CCNC(=O)[C@H]1C[C@@H](O)[C@H](O)[C@@H]2N=C(Nc3cccc(C(F)(F)F)c3)S[C@@H]21 the results were SNCA viab count 4%[87.6 µM], NIH3T3 tox inconclusive, HEK cytotox inconclusive, FLuc inh -5%[172 µM] and SNCA expr inh 7%[87.6 µM].
CN1CCN(C(=O)C(C)(C)Oc2nn(CC3CC3)c3ccc(CN4CCCC4)cc23)CC1 was read as SNCA viab count -19%[87.6 µM], NIH3T3 tox inconclusive, HEK cytotox -25%[172 µM], FLuc inh 1%[172 µM] and SNCA expr inh 5%[87.6 µM].
Screening CCN1CCC(OCCCNC(=O)C2(CCO)CC23CCOCC3)CC1 (configuration not stated) returned SNCA viab count 4%, NIH3T3 tox inactive, HEK cytotox inactive, FLuc inh 2% and SNCA expr inh -3%.
For COc1ccc(OC)c(S(=O)(=O)N2CCc3nn(CC4CC4)c(=O)n3CC2)c1 the results were SNCA viab count 0%, NIH3T3 tox -6%, HEK cytotox -2%, FLuc inh 10% and SNCA expr inh 9%.
`Cc1cnc(C(=O)N2CCCC(c3nnc(Cn4cccn4)n3C)C2)cn1` (configuration not stated) gave SNCA viab count 6%, NIH3T3 tox -20%, HEK cytotox -5%, FLuc inh -4% and SNCA expr inh 7%.
`CNC(=O)N1CCc2nc(N(C)C)[nH]c(=O)c2CC1` gave SNCA viab count 5%, NIH3T3 tox inactive, HEK cytotox 6%, FLuc inh -3% and SNCA expr inh 23%.
For CN(C)C(=O)CCC(=O)N1CC[C@@](C)(O)[C@@H](Cc2ccccc2)C1 the results were SNCA viab count 8%, NIH3T3 tox -4%, HEK cytotox 0%, FLuc inh 2% and SNCA expr inh 6%.
`CC(C)(Oc1nn(CC2CC2)c2ccc(CN3CCCC3)cc12)C(=O)NC1CC1` gave SNCA viab count 0%[87.6 µM], NIH3T3 tox -19%[138 µM], HEK cytotox inconclusive, FLuc inh 2%[172 µM] and SNCA expr inh -8%[87.6 µM].
`Cc1ccccc1CCN1CCC(CN(C(=O)c2ccoc2C)C2CCCC2)CC1` gave SNCA viab count -2%, NIH3T3 tox inconclusive, HEK cytotox inconclusive, FLuc inh -4% and SNCA expr inh 3%.
For CC(C)CC(NC(=O)c1cc(S(N)(=O)=O)ccc1F)c1cccnc1 (configuration not stated) the results were SNCA viab count 4%, NIH3T3 tox -20%, HEK cytotox -8%, FLuc inh 8% and SNCA expr inh 3%.
For CCc1ccc(CNC(=O)CCC2CCN(C(=O)c3ccccc3)CC2)cc1 the results were SNCA viab count 8%, NIH3T3 tox -24%, HEK cytotox inconclusive, FLuc inh 0% and SNCA expr inh -25%.
`CCn1ncnc1C1CC(=O)Nc2cc(OC)c(NC(=O)CC(C)C)cc21` (configuration not stated) gave SNCA viab count -2%, NIH3T3 tox 3%, HEK cytotox inactive, FLuc inh -2% and SNCA expr inh -14%.
For CN(C)c1nc2c(c(=O)[nH]1)CCN(C(=O)CCCS(N)(=O)=O)C2 the results were SNCA viab count -6%, NIH3T3 tox -10%, HEK cytotox -9%, FLuc inh 4% and SNCA expr inh -14%.
For COc1cccn(CC(=O)N(C)CCn2nc(C)cc2C)c1=O the results were SNCA viab count 4%, NIH3T3 tox -1%, HEK cytotox 0%, FLuc inh 1% and SNCA expr inh 38%[activator].
`CCN(Cc1nc(C)no1)C(=O)c1cc(COc2cccc(F)c2)[nH]n1` gave SNCA viab count -4%, NIH3T3 tox -17%, HEK cytotox -7%, FLuc inh -2% and SNCA expr inh 23%.
NC(=O)CN1CCC(C(=O)NCCCc2csc(N)n2)CC1 was read as SNCA viab count 2%, NIH3T3 tox 3%, HEK cytotox -7%, FLuc inh 6% and SNCA expr inh -18%.
Cn1ccc(NC(=O)C(C)(C)Oc2nn(CC3CC3)c3ccc(CN4CCCC4)cc23)n1 was read as SNCA viab count -5%[87.6 µM], NIH3T3 tox -19%[138 µM], HEK cytotox inconclusive, FLuc inh 1%[172 µM] and SNCA expr inh 4%[87.6 µM].
Screening Cn1ncc(Cl)c1-c1cc(C(=O)N[C@H](CN)Cc2cccc(F)c2)sc1Cl returned SNCA viab count -33%.
COCCN1CC(Cc2ncccc2C(=O)N2CCCCC2)CC1=O (configuration not stated) was read as SNCA viab count -2%, NIH3T3 tox 0%, HEK cytotox inactive, FLuc inh 12% and SNCA expr inh 10%.
Screening C=CCN1C[C@@]2(C(=O)O)CN(c3ncnc4[nH]ccc34)C[C@H]2C1=O returned SNCA viab count 0%, NIH3T3 tox 0%, HEK cytotox -4%, FLuc inh 5% and SNCA expr inh -5%.
Screening O=C1CC2CCCC(C1)N2C(=O)c1ccc2c(c1)OCO2 returned SNCA viab count -2%[87.6 µM], NIH3T3 tox -3%[138 µM], HEK cytotox -23%[172 µM], FLuc inh -5%[172 µM] and SNCA expr inh 14%[87.6 µM].
`CCOc1ccccc1NC(=O)N1c2ccccc2CC1c1noc(C(C)C)n1` (configuration not stated) gave SNCA viab count 1%, NIH3T3 tox inconclusive, HEK cytotox inconclusive, FLuc inh -5% and SNCA expr inh 32%.
For COCCNC(=O)N1CCCC(CNC(=O)C2(c3ccc(Cl)cc3)CC2)C1 (configuration not stated) the results were SNCA viab count -10%, NIH3T3 tox -14%, HEK cytotox -15%, FLuc inh 0% and SNCA expr inh 11%.
Screening COCC(=O)N1CC[C@]2(O)CCN(C(=O)c3ccc(C(C)=O)s3)C[C@@H]2C1 returned SNCA viab count 11%, NIH3T3 tox -1%, HEK cytotox -13%, FLuc inh 5% and SNCA expr inh -18%.
Cn1nc(OC(C)(C)C(=O)NCCc2ccccc2)c2cc(CN3CCCC3)ccc21 was read as SNCA viab count -25%[87.6 µM], NIH3T3 tox inconclusive, HEK cytotox inconclusive, FLuc inh -5%[172 µM] and SNCA expr inh 7%[87.6 µM].
Screening CCC(C(=O)N1CCN(c2ccccc2)C(=O)C1)N1Cc2ccccc2C1=O (configuration not stated) returned SNCA viab count -1%, NIH3T3 tox 0%, HEK cytotox -2%, FLuc inh -4% and SNCA expr inh inconclusive.
Cc1nnc(-c2cc(N3CCN(c4ccccn4)CC3)ccn2)n1C was read as SNCA viab count 6%[87.6 µM], NIH3T3 tox -14%[138 µM], HEK cytotox inconclusive, FLuc inh inconclusive and SNCA expr inh 100%[activator][87.6 µM].
`O=C(Nc1ccc(F)cc1)c1ccnc2[nH]ccc12` gave SNCA viab count 0%[87.6 µM], NIH3T3 tox inconclusive, HEK cytotox -22%[230 µM] and SNCA expr inh 58%[activator][87.6 µM].

Bioassay records from PubChem BioAssay.

Only part of the results is shown; the hit share may differ from the screen's.
